# High-throughput results as filed in PubChem BioAssay.
# Sfp inh: qHTS Assay for Inhibitors of Bacillus subtilis Sfp phosphopantetheinyl transferase (PPTase). 310,000 compounds, 3.5% hits. Potency, µM, for the others: max response, negative = inhibition, hits mostly inhibitors. Biochemical Sfp PPTase activity, qHTS. AID 1490, 2009. 4'-phosphopantetheinyl transferase ffp (Bacillus subtilis), Q9F4F7; active = well fitted inhibition curve with a large enough effect; inconclusive = small, poorly fitted or top-dose-only effect, or another doubt; inactive = no such curve, though single readings can be large or run the other way;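 note: the enzyme is Sfp with the accession as filed and its product quenches rhodamine fluorescence; potency is the fitted concentration of half-maximal effect; 0% = enzyme reaction without inhibitor and -100% = no enzyme wells; top concentration of the series not given in the record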
#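 Sfp 15 nM + cpd, 15 min RT; start w/ rhodamine-CoA 5 uM, BHQ-2-YbbR 12.5 uM (final); 50 mM Hepes pH 7.6, 10 mM MgCl2, 0.01% NP-40, 0.01% BSA; read 525/598 nm at 0 and 30 min.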
# ClpP mod: qHTS Assay for Activators of ClpP; purified B. subtilis ClpP, FRET peptide cleavage, 20 min; 340,000 compounds, 1.9% hits; Potency, µM (top dose mostly 57.5 µM), without a hit: at the top dose activity change, negative = active; AID 651965, 2013; ATP-dependent Clp protease proteolytic subunit (Bacillus subtilis (strain 168)), P80244; active = well fitted falling curve with a large enough effect; inconclusive = small, poorly fitted or top-dose-only effect; inactive = no such curve, though single readings can be large or run the other way; note: potency is the fitted concentration of half-maximal effect; the source files actives as falling curves though it sought activators and does not explain the sign; nearly all actives have a fitted effect of over 65% in size; many hits overshoot -100%
# Target sequence (P80244 whole entry, looked up): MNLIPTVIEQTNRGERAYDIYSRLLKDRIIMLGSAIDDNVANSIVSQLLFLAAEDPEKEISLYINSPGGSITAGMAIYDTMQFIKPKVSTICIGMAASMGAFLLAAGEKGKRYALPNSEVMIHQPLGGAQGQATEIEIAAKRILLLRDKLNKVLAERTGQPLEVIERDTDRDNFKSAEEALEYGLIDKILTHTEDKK
#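 FRET quenching reversal measured ClpP activation: 10 microg/mL B. subtilis ClpP at pH 8 with the FRET-FV decapeptide, read at 430 nm after 320 nm excitation. The 20-min minus 0-min signal was scaled between DMSO/no-enzyme wells and ADEP (5.8 microM final).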
# gsp antagonist: qHTS for Antagonists of gsp, the Etiologic Mutation Responsible for Fibrous Dysplasia/McCune-Albright Syndrome: qHTS; Potency, µM (series often up to 76.9 µM), for inactives: top-dose activity change, negative = inhibition, actives largely listed as inhibitors; 340,000 compounds, 0.4% hits; gsp-mutant cells, cAMP HTRF, 30 min; control for the full effect not named in the record; active = falling curve of any shape with a large fitted effect; inconclusive = falling curve, mostly with a smaller effect; inactive = flat or rising curve; cell line not stated here;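 note: intracellular cAMP measured with PDE inhibitor Ro 20-1724 present during compound exposure; potency is the fitted concentration of half-maximal effect; % is set by controls: 0 for no effect and ±100 for the full control effect; nearly all actives have a fitted effect of over 65% in size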
#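 G418-selected cells were plated in DMEM/10% FBS for 16-24 h at 37C, then treated with compounds plus the PDE inhibitor […] (300 uM solution added) for 30 min at 37C. Intracellular cAMP was measured by HTRF after 30 min lysis at room temperature.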
# gsp ag: qHTS for Agonist of gsp, the Etiologic Mutation Responsible for Fibrous Dysplasia/McCune-Albright Syndrome: qHTS; 340,000 compounds, 0.13% hits; gsp mutant cells, cAMP HTRF, 30 min; control for the full effect not named in the record; Potency, µM (doses to about 76.9 µM), for inactives: at the top dose activation (cAMP increase), most hits filed as activators; active = well fitted activation curve with a large enough effect; inconclusive = small, poorly fitted or top-dose-only effect, or another doubt; inactive = no such curve, though single readings can be large or run the other way; cell line not stated here;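 note: phosphodiesterase inhibitor Ro 20-1724 added with compounds to block cAMP breakdown; potency is the fitted concentration of half-maximal effect; nearly all actives have a fitted effect of over 60% in size; about a fifth of the inactives were tested at one dose only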
#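 Cells in DMEM/10% FBS with G418 were pretreated with compounds in DMSO plus […] (300 uM stock) for 30 min at 37C. cAMP was measured by HTRF (cAMP-d2 plus anti-cAMP antibody-K) after 30 min at room temperature.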
# Menin-MLL FL inh: qHTS Assay for Inhibitors Targeting the Menin-MLL Interaction in MLL Related Leukemias: Competition With Fluorescein Labeled MLL-derived Peptide. Fluorescence polarization, fluorescein-MLL peptide displacement from menin. AID 1766, 2009. 290,000 tested, under 10 active. FP activity change, % at 61.4 µM; inconclusive = falling polarisation curve, or a change in total fluorescence; inactive = total fluorescence flat and polarisation flat or rising; no compound was filed as active; the % refers to the polarisation; negative = inhibition;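 note: % of control where 0% means no effect; inhibitors lower the polarisation; unlabelled MLL peptide was the positive control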
# TRPV1 PAM: HTS Assay for Compounds that Act as Potentiators of the Vanilloid Receptor 1; 320,000 compounds, 0.02% hits; TRPV1-expressing cells, Fluo-8 calcium influx, capsaicin EC20 potentiation; host cell line not named in the record; control for the full effect not named in the record; potentiation, % at 8.33 µM; Transient receptor potential cation channel subfamily V member 1 (Homo sapiens), Q8NER1; active means potentiation above 80%; inconclusive means 30% to 80%; inactive means below 30%; note: 0% is about no effect
# Target sequence (Q8NER1 whole entry, looked up): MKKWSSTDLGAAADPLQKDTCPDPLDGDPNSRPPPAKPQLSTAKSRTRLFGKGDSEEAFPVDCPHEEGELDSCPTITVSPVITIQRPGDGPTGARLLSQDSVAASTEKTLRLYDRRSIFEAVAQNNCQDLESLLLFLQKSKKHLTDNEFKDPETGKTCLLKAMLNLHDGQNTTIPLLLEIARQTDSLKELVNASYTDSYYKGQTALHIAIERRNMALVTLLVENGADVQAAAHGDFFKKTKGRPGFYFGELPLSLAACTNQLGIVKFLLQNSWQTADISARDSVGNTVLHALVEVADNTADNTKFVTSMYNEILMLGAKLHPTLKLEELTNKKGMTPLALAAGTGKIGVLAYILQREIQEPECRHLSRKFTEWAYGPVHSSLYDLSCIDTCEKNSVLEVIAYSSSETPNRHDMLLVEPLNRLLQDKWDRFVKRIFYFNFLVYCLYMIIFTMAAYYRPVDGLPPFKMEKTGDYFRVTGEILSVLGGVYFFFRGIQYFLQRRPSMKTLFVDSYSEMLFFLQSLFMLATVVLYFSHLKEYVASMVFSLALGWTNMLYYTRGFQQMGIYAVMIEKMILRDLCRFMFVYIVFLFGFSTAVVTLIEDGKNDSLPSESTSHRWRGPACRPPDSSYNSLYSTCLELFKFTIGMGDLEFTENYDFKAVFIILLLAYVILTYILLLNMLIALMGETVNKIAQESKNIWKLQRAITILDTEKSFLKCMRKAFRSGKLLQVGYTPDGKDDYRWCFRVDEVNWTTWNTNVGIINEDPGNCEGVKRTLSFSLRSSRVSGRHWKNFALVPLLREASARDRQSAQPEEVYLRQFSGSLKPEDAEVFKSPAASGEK
#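 Cells expressing TRPV1 were dye-loaded with Fluo-8 and read kinetically: 10 s baseline, 3 min after compound (agonist portion), then 2 min after EC20 capsaicin (allosteric enhancer portion). Calcium-bound dye fluorescence at 480/520 nm.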
# CtBP-E1A blk: qHTS Assay for Inhibitors of the CtBP/E1A Interaction; CtBP / adenovirus E1A interaction (AlphaScreen); AlphaScreen GST-E1A/His-CtBP binding, 1536-well; hits give low values; control for the full effect not named in the record; activity change, % (no concentration beside the values); 340,000 compounds, 0.49% hits; AID 651724, 2012; in the data active means activity change below about -65%; inconclusive means about -30% to -65%; inactive means above about -30%; note: % is set by controls: 0 for no effect and ±100 for the full control effect
#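 Steps: dispense buffer (Tris pH 8.0, NaCl 300 mM, TCEP 1 mM, BSA, Tween 20); add 5X protein mix (GST-E1A, His-CtBP, 125 nM each); pin 23 nL compound; 2 h at 37 °C, dark; add 5X beads (50 ug/mL); 1 h; read.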
# The depositor's hits bear a star; ? = inconclusive; . = no result given; [ ] = remark or other dose. Rows were taken by chance, and some 5.3% of all compounds hit somewhere here.
SMILES,Sfp inh,ClpP mod,gsp antagonist,gsp ag,Menin-MLL FL inh,TRPV1 PAM,CtBP-E1A blk
CCCOc1ccc(N2C(=O)CC(N(Cc3ccco3)C(=O)CC)C2=O)cc1 (stereo not given),-13%,.,4%,-17%,2.5,9,4
O=C(OCC(=O)c1ccc(Cl)s1)c1cnccn1,2%,-3.7%,1%,24%[15.4 µM],18,-2,-1
CN(c1ccc(C(=O)NC2CCCCC2)cc1)S(=O)(=O)c1ccccc1,.,1.0%,-8%,-6%,.,.,-2
Cc1cc(F)ccc1S(=O)(=O)Nc1ncnc2sc3c(c12)CCC3,17%,.,-19%,20%[15.4 µM],-0.7,8,.
C/C(=C\c1ccccc1)C(=O)N1CCN(Cc2ccc3c(c2)OCO3)CC1,4%,-0.5%,1%,-2%,-1.9,-17,8
O=C(Cn1c(CO)nc2ccccc21)NC1CCCCCC1,23%,.,.,.,-3.4,0,.
CCOC(=O)C1CCN(Cc2c(O)ccc3ccccc23)CC1,-9%,28µM*,-11%,10%,3.1,13,-3
COc1ccc(-c2cn[nH]c2-c2ccc(OCc3ccc(F)cc3)cc2O)cc1OC,45%[activator],.,-16%,-31%[15.4 µM],2.0,-1,-12
CCC(c1nnnn1CCOC)N(Cc1ccc(C)cc1)Cc1cc2cc(OC)ccc2[nH]c1=O (stereo not given),?,-12%,?,-30%[inhibitor],-11,-17,7
CCCCNC(=O)CSc1nnc(-c2cccc(S(=O)(=O)N3CCOCC3)c2)o1,.,-4.4%,-7%,-22%,.,19,-2
CC(=O)c1cccc(NC(=O)COC(=O)CCC(=O)c2cccs2)c1,.,2.0%,9%,-2%[15.4 µM],.,-11,1
O=C(/C=C/c1cccc(Cl)c1)OCC(=O)c1ccc[nH]1,.,0.5%,.,-41%[inhibitor],.,.,4
Cc1ccc(OCC(=O)OC2CCCN(C)C2)cc1 (stereo not given),-2%,0.2%,65%[activator],?,-1.7,-7,.
NC(=O)c1c(/N=C/c2cccnc2)sc2c1CCCC2,?,1.1%,?,0%[15.4 µM],1.0,-13,0
Cc1nc2oc(C(=O)c3ccccc3)c(N)c2c2c1COC(C)(C)C2,-5%,1.3%,-24%,-5%[15.4 µM],0.0,?,0
Cc1c(-c2ccccc2)[n+](=O)c(-c2ccc(Cl)cc2)c(C)n1[O-],17%,.,1%,7%[15.4 µM],-1.2,-2,.
COc1ccc(NC(=O)OC(CN2CCCCC2)C(F)(F)F)cc1 (stereo not given),0%,-0.7%,-3%,3%,-0.2,7,-1
O=C(c1cc2cc(Br)cc(Br)c2oc1=O)N1CCCC1,4%,-1.9%,1%,-26%,6.6,-22,10
Cc1ccc(-c2nnn(CC(=O)Nc3cccc4cccnc34)n2)o1,-8%,3.4%,-10%,-34%[inhibitor],3.8,-2,-10
Cc1ccc(S(=O)(=O)N2CCCC2C(=O)Nc2cc(C)on2)cc1 (stereo not given),9%,0.9%,4%,13%,1.9,7,7
O=C(COC(=O)C12CC3CC(CC(C3)C1)C2)Nc1ccc2[nH]c(=O)[nH]c2c1,2%,1.1%,-1%,-24%,-1.5,-2,3
CC(C)(C)C1CCc2c(C(=O)N/N=C/c3cccs3)csc2C1 (stereo not given),15%,-0.4%,?,-65%[inhibitor],1.1,-15,0
CC(=O)N(C)c1ccc(NC(=O)Nc2ccc(C)cc2)cc1,16%,-1.0%,12%,-58%[inhibitor],-8.1,14,7
O=C(Nc1ccccc1Cl)c1cccs1,-1%,3.1%,0%,-39%[inhibitor],2.0,-3,4
CC(C)Cc1cc(C(=O)NCCN2CCOCC2)no1,5%,1.5%,5%,-40%,1.5,-2,6
Cc1ccc(NC(=O)NCc2ccccn2)cc1Cl,8%,-0.2%,3%,25%,0.4,1,2
COc1ccc(NC(=O)C(=O)NNC(=O)COc2ccc(OC)cc2)cc1,2%,.,-1%,-32%[inhibitor],.,0,12
Cc1cc(SCc2ccc(F)cc2)nc(=O)[nH]1,1%,0.3%,-1%,-2%,13,10,.
CC(=O)Nc1ccc(/C(C)=N/NC(=O)c2ccc(COc3ccccc3Cl)o2)cc1,.,.,-9%,-10%[15.4 µM],.,.,-2
COc1ccc(CCNC(=S)NC(=O)/C=C/c2ccc(C)cc2)cc1OC,?,-1.0%,5%,5%,-0.3,0,-18
COc1cccc(-n2cnc3c(sc4nc(N5CCOCC5)c5c(c43)CCCC5)c2=O)c1,-6%,.,-8%,-22%[15.4 µM],4.2,-8,6
O=C(COC(=O)CNS(=O)(=O)c1cccc(Br)c1)Nc1ccccc1Sc1ccccc1,4%,1.4%,-8%,-15%,7.7,8,-15
CS(=O)(=O)c1cccc(NC(=O)CSc2nnc3n2CCCCC3)c1,.,-0.1%,13%,-13%,.,-1,-3
C/C(=N\NC(=O)c1cc(-c2ccncc2)nc2ccccc12)c1ccc(OC(F)F)cc1,4%,.,-30%,-16%[15.4 µM],-2.1,-1,2
COc1ccc2c(c1)c(C(=O)O)c(C)n2-c1ccc(Cl)cc1,0%,-3.1%,-11%,29%,1.2,-11,0
C[C@H]1C(=O)N(C)CCN1Cc1cn(C)nc1-c1ccc(Oc2ccccc2)cc1,6%,.,-9%,-21%,2.0,5,2
Cc1sc(NC(=O)C2CCCO2)c(C#N)c1C (stereo not given),15%,-4.7%,6%,5%,-2.3,8,0
Cc1ccc(C(c2nnnn2CS(=O)(=O)c2ccc(C)cc2)N2CCCC2)cc1 (stereo not given),0%,0.8%,-10%,-22%,2.6,-9,-10
COc1ccccc1N1CCN(C(=O)c2cccc(NC3=NC4CS(=O)(=O)CC4S3)c2)CC1 (stereo not given),-6%,-1.8%,6%,-45%[inhibitor],-9.2,20,-1
Cc1oc2cc(O)ccc2c(=O)c1Oc1ccccc1Br,20%,3.9%,-19%,12%,0.7,-32,3

# Full records, looked up by structure. Order of values: Sfp inh	ClpP mod	gsp antagonist	gsp ag	Menin-MLL FL inh	TRPV1 PAM	CtBP-E1A blk
# CS(=O)(=O)c1cccc(NC(=O)CSc2nnc3n2CCCCC3)c1 across the screens: .	-0.1%	13%	-13%	.	-1	-3
# Cc1sc(NC(=O)C2CCCO2)c(C#N)c1C (stereo not given) across the screens: 15%	-4.7%	6%	5%	-2.3	8	0
# CC(=O)Nc1ccc(/C(C)=N/NC(=O)c2ccc(COc3ccccc3Cl)o2)cc1 across the screens: .	.	-9%	-10%[15.4 µM]	.	.	-2
# COc1ccc2c(c1)c(C(=O)O)c(C)n2-c1ccc(Cl)cc1 across the screens: 0%	-3.1%	-11%	29%	1.2	-11	0

# Going on with the list:
SMILES,Sfp inh,ClpP mod,gsp antagonist,gsp ag,Menin-MLL FL inh,TRPV1 PAM,CtBP-E1A blk
Cc1ccc(-n2c(=O)c3ccccc3n(CC(=O)NCc3ccco3)c2=O)cc1,8%,-8.2%,2%,-1%,0.9,-9,-1
CC(=O)Oc1ccccc1-c1nc(C)nc(N(C)C(C)=O)n1,23%,0.0%,2%,-19%,4.6,6,60
CCOC(=O)c1noc(C)c1C(=O)Nc1nccs1,20%,.,8%,?,0.6,5,0
Cc1ccc2[nH]c(=S)cc(C)c2c1,?,-2.7%,0%,26%,6.6,4,0
Cc1ccc(S(=O)(=O)CCC(=O)OCC(=O)NCCc2ccc(F)cc2)cc1,.,0.9%,10%,-19%,.,6,10
CCC(=O)c1ccc(OCC(=O)OCC(=O)NCCC2=CCCCC2)cc1,.,.,-4%,5%[15.4 µM],.,23,0
CC(=O)NC(Cc1ccc(F)cc1)C(=O)NC1CCN(C(=O)Nc2ccc(F)cc2)CC1 (stereo not given),17%,.,14%,1%[15.4 µM],-0.2,1,-17
COc1ccc2c(=O)c3c(=O)n(Cc4ccco4)c(C4CCCCC4)nc3oc2c1,2%,.,.,.,3.1,-6,.
CC1CCC(NC(=O)C(C)N2C(=O)C3CCCCC3C2=O)CC1 (stereo not given),.,1.4%,3%,-44%[inhibitor],.,6,0
O=C(NC1c2ccccc2-c2ccccc21)c1ccccc1,-1%,-2.3%,8%,?,1.6,-4,-3
COc1ccc(NC(=O)C2=CN3CCS(=O)(=O)N=C3C=C2)c(OC)c1,.,-20%,-3%,-17%,.,-14,.
CC(=O)c1cccc(S(=O)(=O)N2CCC(C(=O)Nc3cccc(C(=O)NC4CC4)c3)CC2)c1,.,0.1%,3%,-33%[inhibitor],.,5,.
Cc1ccc(C)c(NC(=O)CN(C)C(=O)c2cc(C3CC3)nn2-c2ccccc2)c1,.,0.3%,-29%,-21%,.,.,.
CCc1nnc(NS(=O)(=O)c2ccc(NC(=O)c3cc(Cl)ccc3OC)cc2)s1,2%,-4.0%,?,-7%,-3.0,-10,-3
CC(C)(C)n1nnnc1C(c1ccccn1)N1CCN(C(c2ccccc2)c2ccccc2)CC1 (stereo not given),1%,-1.9%,13%,11%,-5.6,-4,3
Cn1c(=O)n(C)c2cc(/C=N/NC(=S)NCc3ccccc3)ccc21,-10%,-15%,5%,-3%,4.5,-5,-10
O=C(NCCC1CCCCN1S(=O)(=O)c1ccccc1)C(=O)NCc1ccccc1F (stereo not given),.,0.5%,-3%,-2%[15.4 µM],.,-3,-2
Cc1nc(N)sc1C(=O)Nc1ccccc1,5%,-4.0%,4%,0%,-0.9,28,-1
COc1ccc(/C=N/NC(=O)c2cc(C)oc2C)cc1OC,8%,.,-8%,-35%[inhibitor][15.4 µM],3.2,.,-7
